TRPV1 PAM: potentiators of human vanilloid receptor 1 (TRPV1). Q8NER1. TRPV1-expressing cells, Fluo-8 calcium influx, capsaicin EC20 potentiation; host cell line not named in the record; control for the full effect not named in the record. potentiation, % at 8.33 µM. 320,000 tested, 0.02% active. AID 540277; active means potentiation above 80%; inconclusive means 30% to 80%; inactive means below 30%; further: 0% is about no effect
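TRPV1-expressing cells were cultured overnight at 35.5C and loaded with Fluo-8 calcium dye for 40 to 90 min at room temperature. After a 10 s baseline, compound was added and calcium influx was read kinetically for 3 min (ex 480/em 520 nm).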
D2 potentiator: potentiates the human D2 dopamine receptor allosterically; potentiation, % (test concentration not listed); AID 624464; DiscoveRx D2 beta-arrestin cells, luminescence, 90 min; 100% = 57 uM dopamine signal; 360,000 tested, 0.23% active; P14416; active = potentiation of 50% or more; inconclusive = 30% to 50%; inactive = 30% or less;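 further: compound concentration not given in the record; tested on top of an EC20 dose of dopamine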
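PathHunter beta-arrestin assay in DiscoveRx D2 cells. Compounds were added with an EC20 of dopamine (50 nM final) for 90 min at 37 deg C. Luminescence was read 1 h after detection reagent, with 57 uM dopamine as the EC100 control.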
Six1-Eya2 inh: Six1/Eya2 interaction inhibition. activity change, % (test concentration not listed). Q15475+O00167. AID 651725. 360,000 tested, 0.56% active. AlphaScreen GST-Six1/His-Eya2 binding, biochemical; stronger effect = lower value; control for the full effect not named in the record; in the data active = activity change below about -65%; inconclusive = about -30% to -65%; inactive = above about -30%; further: on the % scale 0 is the no-effect control and ±100 the full control effect; compound concentration not given in the record
Target sequence (O00167 whole entry, looked up): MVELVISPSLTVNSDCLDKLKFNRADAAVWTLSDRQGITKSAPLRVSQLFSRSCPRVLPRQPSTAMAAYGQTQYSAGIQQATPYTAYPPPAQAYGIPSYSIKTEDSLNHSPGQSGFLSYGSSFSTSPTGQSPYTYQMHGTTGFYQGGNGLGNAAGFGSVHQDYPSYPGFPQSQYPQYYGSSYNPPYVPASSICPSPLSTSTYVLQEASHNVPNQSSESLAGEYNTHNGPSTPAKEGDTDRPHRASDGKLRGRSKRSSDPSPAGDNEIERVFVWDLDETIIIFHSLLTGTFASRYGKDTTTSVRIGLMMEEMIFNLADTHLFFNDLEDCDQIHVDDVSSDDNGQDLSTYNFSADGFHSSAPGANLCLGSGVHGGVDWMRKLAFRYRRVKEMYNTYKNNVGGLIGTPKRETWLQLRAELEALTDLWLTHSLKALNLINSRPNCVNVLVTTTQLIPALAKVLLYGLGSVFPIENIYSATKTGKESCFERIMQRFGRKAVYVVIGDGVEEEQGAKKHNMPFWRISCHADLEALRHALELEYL
Target sequence (Q15475 whole entry, looked up): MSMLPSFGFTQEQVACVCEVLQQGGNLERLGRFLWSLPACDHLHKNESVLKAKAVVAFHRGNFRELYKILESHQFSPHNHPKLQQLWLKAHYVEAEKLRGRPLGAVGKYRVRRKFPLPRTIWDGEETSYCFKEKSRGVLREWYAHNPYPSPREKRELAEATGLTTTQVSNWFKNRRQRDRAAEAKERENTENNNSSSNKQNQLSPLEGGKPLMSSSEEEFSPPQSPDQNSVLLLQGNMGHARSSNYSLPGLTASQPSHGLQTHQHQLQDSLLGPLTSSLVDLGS
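Compounds are tested against tagged Six1 and Eya2 proteins bridged by glutathione donor and nickel acceptor beads; after a one-hour incubation at 37 °C without light, AlphaScreen emission is recorded.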
D2 ag: activates the human D2 dopamine receptor; P14416; 360,000 tested, 0.084% active; activation, % (concentration not given with the values); DiscoveRx PathHunter D2 beta-arrestin, luminescence, 90 min; 100% = 57 uM dopamine signal; in the data active = activation above about 40%; inconclusive = about 15% to 40%; inactive = below about 15%; further: compound concentration not given in the record; the text of the record calls up to 30% inactive
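DiscoveRx PathHunter D2 beta-arrestin cells (2,100/well) attached overnight, then compound-stimulated 90 min at 37 C in HBSS/10 mM HEPES/0.1% Tween-20 buffer; beta-galactosidase complementation read by luminescence after 1 h at ambient temperature. Dopamine 57 uM final (EC100) as control.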
CtBP-E1A blk: inhibitors of CtBP/E1A interaction; activity change, % (no concentration beside the values); AID 651724; AlphaScreen GST-E1A/His-CtBP binding, 1536-well; stronger effect = lower value; control for the full effect not named in the record; 340,000 tested, 0.49% active; in the data active means activity change below about -65%; inconclusive means about -30% to -65%; inactive means above about -30%; further: on the % scale 0 is the no-effect control and ±100 the full control effect; compound concentration not given in the record
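In 5 uL wells, 23 nL compound meets equimolar GST-E1A and His-CtBP (5X stock 125 nM each) for 2 h, 37 °C. Beads (5X, 50 ug/mL) then 1 h, 37 °C, dark.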
PINK1 expr mod: PINK1 expression modulation. PINK1 immunofluorescence, high-content cytometry, 24 h. Potency, µM (doses to about 76.6 µM), inactives show at the top dose activation (PINK1 increase), actives largely listed as activators. 410,000 tested, 0.2% active. AID 624263; active = well fitted activation curve with a large enough effect; inconclusive = small, poorly fitted or top-dose-only effect; inactive = flat fitted curve, though single readings scatter; cell line not stated here;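 further: potency means the concentration at half of the fitted maximal effect; % of control where 0% means no effect; nearly all actives have a fitted effect of over 65% in size; a mitochondrial uncoupler was the plate control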
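Measures PINK1 amount and localization on or inside mitochondria by immunofluorescence. Stable cells get compounds at 5 concentrations for 24 hours before fixation and staining; CCCP controls included.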
Sfp PPTase inh: inhibitors of Bacillus subtilis Sfp phosphopantetheinyl transferase | 310,000 tested, 3.5% active | Potency, µM, for the others: max response, negative = inhibition, hits mostly inhibitors | AID 1490 | Q9F4F7 | Biochemical Sfp PPTase activity, qHTS; active means well fitted inhibition curve with a large enough effect; inconclusive means small, poorly fitted or top-dose-only effect, or another doubt; inactive means no such curve, though single readings can be large or run the other way;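 further: the enzyme is Sfp with the accession as filed and its product quenches rhodamine fluorescence; potency means the concentration at half of the fitted maximal effect; 0% = enzyme reaction without inhibitor and -100% = no enzyme wells; top concentration of the series not given in the record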
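Sfp 15 nM + cpd, 15 min RT; start w/ rhodamine-CoA 5 uM, BHQ-2-YbbR 12.5 uM (final); 50 mM Hepes pH 7.6, 10 mM MgCl2, 0.01% NP-40, 0.01% BSA; read 525/598 nm at 0 and 30 min.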
Numbers without * were called inactive; ? = inconclusive; . = not tested or not shown; [ ] = remark or other dose.

compound	TRPV1 PAM	D2 potentiator	Six1-Eya2 inh	D2 ag	CtBP-E1A blk	PINK1 expr mod	Sfp PPTase inh
O=C(NCc1ccc(F)cc1)c1cc(C2CCCN(C(=O)c3cccs3)C2)on1 (stereo not given)	.	-6	7	-3.5	-11	0.3%	.
Cc1ccc(CN2C(=O)C(C)Sc3ccc(C#N)cc32)cc1 (stereo not given)	.	-2	25	2.0	-21	0.0%	.
CCc1ccc2oc(C(=O)N3CCN(C)CC3)cc(=O)c2c1	4	-7	7	-1.2	.	-0.6%	20%
O=C(c1cccc(N2C(=O)C3CC=CCC3C2=O)c1)N1CCCCCC1 (stereo not given)	29	-2	2	-4.5	9	4.4%[38.3 µM]	-5%
Cn1c(/C(C#N)=C/c2cccc(O)c2)nc2ccccc21	28	-15	4	5.7	17	5.9%	14%
Cc1cc(Cl)ccc1C(O)c1ncc(-c2ccc(C(F)(F)F)cc2)[nH]1 (stereo not given)	.	4	-1	2.5	-2	5.2%	.
Cc1ccc(/C=C/C(=O)Nc2nnc(C)s2)o1	6	-11	-6	1.1	3	2.0%	-10%
CCc1cc2ccccc2nc1SCC(=O)NC1CCCC1	-1	-5	1	-3.2	2	1.2%	5%
COc1ccc(OC)c(-c2nnc(NC(=O)C(C)Sc3nncn3C)s2)c1 (stereo not given)	12	4	-13	4.9	-12	2.1%	?
CCc1nnc(NC(=O)c2cc(-c3ccc(C)o3)nc3ccccc23)s1	10	17	-22	5.6	?	0.2%	.
CCOc1ccc(NC(=O)CCC(=O)NNC(=O)Nc2cccc(Cl)c2)cc1	2	-5	11	-5.9	-4	4.7%	8%
CCN(CCS(=O)(=O)c1ccc(Cl)cc1)Cc1nc2ccccc2c(=O)[nH]1	.	-22	4	-4.2	6	-0.1%	.
Cc1ccc2nc(SCC(=O)Nc3cccnc3Cl)[nH]c2c1	-6	-11	-2	0.6	1	-2.4%	.
COc1ccc(-c2noc(C(=O)NCc3ccccc3Cl)n2)cc1OC	0	-1	2	-2.8	1	2.2%	13%
CCOC(=O)CCCNC(=O)CN1C(=O)NC(CCc2ccccc2)C1=O (stereo not given)	28	-4	3	0.4	7	4.7%[38.3 µM]	9%
CCOC(=O)N1CCN(CCC(=O)Nc2ccc(Br)cc2)CC1	-4	-2	-2	2.4	-10	-2.0%	14%
O=C(NC(Cc1c[nH]c2ccccc12)C(=O)Nc1ccc(F)cc1)c1cccs1 (stereo not given)	-2	-8	-9	-0.7	-9	-0.9%	27%
Cc1cccc(C)c1NC(=O)CN(C)C(=O)[C@H](C)NC(=O)c1ccco1	-49	-3	6	0.0	-8	0.9%	.
CCOc1cc(NC(=O)c2cccs2)c(OCC)cc1NC(=O)c1ccco1	2	-4	7	-0.5	1	9.2%	15%
CCc1ccc(C(=O)COC(=O)C(Cc2ccccc2)NC(=O)C2CCC(C)CC2)cc1 (stereo not given)	-35	0	5	-2.0	0	1.5%	11%
CC(=O)c1cccc(NC(=O)c2sc3nc4n(c(=O)c3c2C)CCCC4)c1	-27	4	-18	0.0	?	10%	22%
C[C@H](NC(=O)Cc1ccccc1)C(=O)N1CCC2(CC1)NCCc1[nH]cnc12	-5	-12	0	-6.1	-6	-0.9%	0%
O=C(Nc1ccccc1N1CCN(C(=O)c2ccccc2)CC1)c1ccc(Cl)cc1	-8	-11	-6	3.6	-2	0.4%	8%
CCN(C(=O)CN1CCCCCC1)c1c(N)n(Cc2ccccc2)c(=O)[nH]c1=O	.	-23	9	-0.2	0	-2.8%	.
O=[N+]([O-])c1cc(F)c2cccnc2c1O	-7	-10	-88*	15	.	0.5%	?
COc1ccc(OC)c(NC(=O)CC2C(=O)NCCN2C(=O)c2ccccc2)c1 (stereo not given)	4	-2	3	8.9	5	-1.6%	11%
CN(CC(=O)NCC1CCCCC1)CC(=O)Nc1ccccc1Br	-21	6	0	1.6	2	2.0%	.
O=C(Cc1cccs1)N1CCN(c2ccccn2)CC1	-5	-10	0	-3.4	4	-0.3%	7%
O=C(Cn1nnc2ccccc21)c1ccc([N+](=O)[O-])cc1	-13	0	-3	1.2	.	0.9%	-2%
Cc1ccc(CCNC(=O)CCc2nc3ccccc3[nH]2)cc1	-32	-38	0	-5.6	-7	0.2%	4%
COc1cccc(CNC(=O)C2CCCN(S(=O)(=O)c3c(C)noc3/C=C/N(C)C)C2)c1 (stereo not given)	2	-4	6	-4.2	.	5.8%	11%
O=C(CNC(=O)c1ccco1)OCC(=O)c1ccccc1Cl	-7	-17	-4	-11	.	-0.9%	9%
O=C(NC1CCSc2ccccc21)c1cc(S(=O)(=O)N2CCOCC2)ccc1Cl (stereo not given)	-13	-7	-2	-1.5	4	1.5%	.
CCOC(=O)c1ccc(NC(=O)CCOc2ccc(OC)cc2)cc1	-8	-12	0	-0.7	-3	.	6%
COCCn1c(C)cc(C(=O)COC(=O)c2ccccc2Br)c1C	-17	11	-16	-5.5	.	1.4%	2%
Cc1[nH]c2ccccc2c1/C=C(\C#N)C(=O)NCc1ccccc1	-9	-12	-16	1.2	-14	16%	10%
CC(=O)Nc1cc(-c2cccc(NS(C)(=O)=O)c2)cn2c(-c3ccccc3)cnc12	.	-5	?	2.1	?	2.8%	.
C=CCc1cccc2cc(C(=O)Nc3cccc(C(=O)O)c3)c(=O)oc12	-2	-14	9	-5.8	.	-1.3%	9%
CCN(CC)S(=O)(=O)c1ccc(C)c(NS(=O)(=O)c2cc(/C=C/C(=O)O)cc(OC)c2OC)c1	-1	8	2	1.1	15	1.2%	19%
Cn1c(C(=O)NC2CC2)cc2c(=O)n(C)c3ccccc3c21	-14	-3	-5	-0.3	-6	-0.2%	-6%
CCOC(=O)Cc1cnc(NC(=O)NC(C(=O)OCC)(c2ccccc2)C(F)(F)F)s1 (stereo not given)	2	-8	2	1.1	-6	0.4%	20%
CCOc1ccc(NC(=O)C(C)Sc2nnnn2C)cc1 (stereo not given)	-2	-6	3	-0.8	2	.	10%
COc1ccccc1N(CC(=O)NC1CCCCC1)C(=O)Cn1nnc(-c2ccc(C)o2)n1	3	-3	-15	-0.5	20	2.0%	26%
Cc1cc(C)nc(SC(C)C(=O)N/N=C/c2cccs2)n1 (stereo not given)	11	-16	-3	-2.0	-1	-5.0%[38.3 µM]	11%
O=C(OCC(=O)N1CCCCCC1)c1ccc(Br)c(S(=O)(=O)N2CCOCC2)c1	.	-11	1	-1.6	11	0.1%	.
NS(=O)(=O)c1cccc(NC(=O)c2cccc3c(Br)cccc23)c1	9	2	-4	-3.1	16	9.5%	12%
COCOc1cc(O)c(C(=O)/C=C/c2ccc(OCOC)c(OCOC)c2)c(OCOC)c1	.	15	-3	2.6	4	1.4%	.
CC(C)C[C@@H](C)C(=O)N(Cc1ccccc1)c1ccccc1	-18	-7	27	-1.3	17	9.4%	.
CC(C)COc1ccc(C(=O)OCCN2CCOCC2)c(O)c1	-4	-5	-1	-2.3	-1	9.3%	12%
COc1ccc(S(=O)(=O)N2CCCCCC2)cc1C(=O)OCC(=O)NC(N)=O	5	4	6	-3.3	16	1.7%	-3%
c1ccc(SCCCCNC2CCCC2)cc1	9	-10	-10	-5.0	0	-0.6%	-13%
COc1cc(/C=C/C(=O)OCC(=O)Nc2cc(S(=O)(=O)N3CCCC3)ccc2Cl)cc(OC)c1OC	.	-8	-24	-1.8	-12	16%	.
COc1ccc(CN(C)Cc2cc(=O)oc3cc(C)c(C(C)C)cc23)cc1OC	3	2	-9	4.3	-1	7.3%	?
Cc1ccc(NC(C)C(=O)N/N=C/c2ccc([N+](=O)[O-])s2)cc1 (stereo not given)	-12	13	15	4.8	0	3.5%	2%
CC1CN(Cc2nc3c(c(=O)n(C)c(=O)n3C)n2CCc2ccccc2)CC(C)O1 (stereo not given)	.	3	13	-2.6	2	1.9%	.
O=C(CN1C(=O)COc2ccc(Cl)cc21)Nc1nccs1	13	-3	-1	0.2	7	8.8%	.
COCCCNC(=O)CCNS(=O)(=O)c1ccc(C)cc1	11	-4	0	-3.8	47	8.8%[38.3 µM]	16%
O=C(O)c1cccc(Cn2c(Cl)c(/C=N/NC(=O)c3ccc(O)cc3)sc2=O)c1	19	2	?	-0.2	-67*	0.0%	25%
CC(C)c1ccc(NC(=O)c2cc([N+](=O)[O-])ccc2N2CCOCC2)cc1	-11	2	-11	-3.6	-11	2.2%	3%
Cn1nc(C(C)(C)C)c(NC(=O)c2cccs2)c1C(C)(C)C	29	-4	-24	1.3	10	-1.4%	12%

Additional entries:
compound	TRPV1 PAM	D2 potentiator	Six1-Eya2 inh	D2 ag	CtBP-E1A blk	PINK1 expr mod	Sfp PPTase inh
CC1CCN(S(=O)(=O)c2ccc(NC(=O)Cc3cccs3)cc2)CC1	-13	-1	-4	-0.9	-8	-0.4%[38.3 µM]	2%
O=C(CCSc1nc(-c2ccccc2)c(-c2ccccc2)o1)N1CCCCC1	.	-6	-8	2.7	0	?	.
CCCCNC(=O)Nc1ccccn1	18	2	1	2.7	6	4.0%	13%
Cc1noc(C)c1C(=O)OC(C(=O)NC1CCCC1)c1ccc(F)cc1 (stereo not given)	2	-7	2	-0.2	2	-1.6%[38.3 µM]	2%
S=C(Nc1ccc2cn[nH]c2c1)Nc1ccccc1Cl	-14	12	-2	1.5	0	3.9%	-8%
COc1ccc(-c2ccc3c(c2)c(C#Cc2ccsc2)c(-c2cc(OC)cc(OC)c2)n3C)cc1	.	-10	5	3.2	-21	0.2%	.
CC(=O)Nc1cccc(-c2csc(C(NC(C)=O)c3ccc(F)c(F)c3)n2)c1 (stereo not given)	.	4	-4	-2.0	0	1.6%	.
CCOc1ccccc1CNC(=O)C(C)n1nc(C)c2c(C)n(-c3ccccc3)nc2c1=O (stereo not given)	-5	-14	0	-6.8	1	1.6%	14%

With a hit mark in Six1-Eya2 inh (from the list above):
molecule	D2 potentiator	Six1-Eya2 inh	D2 ag	CtBP-E1A blk	PINK1 expr mod	Sfp PPTase inh
O=[N+]([O-])c1cc(F)c2cccnc2c1O	-10	-88*	15	.	0.5%	?

Compound activity: PubChem BioAssay, National Center for Advancing Translational Sciences (NCATS)
